BJeLR viability: MLPCN primary cell-based screen for lethality selective to Ras in HRASV12 cells. BJeLR (HRASV12) viability, CellTiter-Glo ATP luminescence, 48 h; reference of the scale not given here. inhibition, % (concentration not given with the values). hit rate 0.17% among 300,000;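 active means replicate mean above 50%; inconclusive means above 50% but judged a plate artefact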;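 further: 50 nL library stock added to about 25 µL; numbers are from one replicate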
PrP UTR inh: inhibition of PrP 5' UTR reporter expression | cell-based PrP 5' UTR mRNA reporter, plate reader | inhibition, % (concentration not given with the values) | hit rate 0.35% among 340,000 | AID 488862, 2010;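 active means every replicate at 50% or more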;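 further: 0 = median of the neutral control wells; tested in H4 reporter cells; numbers are from one replicate; inactives centre near -14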
Autofluor counter: compound fluorescence in toxin protease inhibitor counterscreen; fluorescence intensity (no concentration beside the values); compound autofluorescence counterscreen, microsphere flow cytometry; active compounds read high; hit rate 3.1% among 360,000;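 active means at least 3 SD above the mean of all compounds, about 16000 in these data; inconclusive means too few beads counted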;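 further: 100 nL of 1 mM stock went into each well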
Sa RN4220 lethal: growth inhibition of S. aureus RN4220, primary screen, OD600. 16 h. hit rate 0.33% among 330,000. inhibition, % (no concentration beside the values);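 active means z-score of -3 or lower and OD600 up to 0.18 on both plates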;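 further: plate controls were untreated cells for no effect and reference antibiotic for full effect; stock transfer was 100 nL into about 80 µL; one replicate is shown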
Sa ugtP lethal: growth inhibition of ugtP-null S. aureus, primary screen, RN4220 ugtP deletion, OD600 | AID 1259309, 2017 | hit rate 0.54% among 330,000 | growth inhibition, % (test concentration not listed) | 16 h; some inactives read as strong as hits;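 active means z-score under -3 and OD600 up to 0.15 on both plates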;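 further: plate controls were untreated wells for no effect and antibiotic for full effect; wells of about 80 µL received 100 nL stock; the first replicate is given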
Mtb hypoxia rep: PubChem AID 1159583. M. tuberculosis hypoxia-regulated fluorescent reporter, fluorescence. hit rate 0.1% among 300,000. fluorescence inhibition, % (no concentration beside the values);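 active means 35 to 45% if threefold the growth effect, above 45% if 1.5-fold the growth effect; inactive means the rest, general growth blockers included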;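 further: wells of about 50 µL received 100 nL stock; 0% = vehicle wells and 100% = reference inhibitor wells; whole bacteria with a GFP reporter of the hypoxia response; strong numbers were not always called active; many hits fall short of the cut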
Mtb hypoxia rep growth: recorded beside Mtb hypoxia rep, whose call it bears; growth inhibition, %; measured here: M. tuberculosis growth (absorbance);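 0% = vehicle and 100% = reference antibiotic; read after six days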
* = called active by the depositor; u = inconclusive; x = not tested or not shown.

SMILES	BJeLR viability	PrP UTR inh	Autofluor counter	Sa RN4220 lethal	Sa ugtP lethal	Mtb hypoxia rep	Mtb hypoxia rep growth
Cc1c(C)n(C)c2ccc(C(=O)NCCN3CCOCC3)cc12	-4	-7	4168	x	x	x	x
Cc1ccc(S(=O)(=O)N2CCN(S(=O)(=O)N3CCCCC3)CC2)cc1C	0	-12	3511	-0.4	2	-8	-14
COc1ccc(-c2cc(=O)oc3cc(OCC(=O)N(C)C)ccc23)cc1	7	-9	3800	3.0	1	-6	15
O=C(CCl)Nc1cccc2ncccc12	7	-1	10847	3.1	-1	15	16
Cc1nnc(NC(=O)COc2ccccc2)s1	-8	-16	12531	3.2	2	2	2
O=C(c1ccc2c(c1)N(Cc1ccc(F)cc1)CCS2)N1CCOCC1	0	1	5808	3.1	-4	8	12
NC(=O)CC(NC(=O)c1ccccc1)c1ccc(N2CCC(Cc3ccccc3)CC2)c([N+](=O)[O-])c1 (configuration not stated)	16	-10	3509	37	71	2	8
Cc1cccc(NCC(=O)NN=Cc2ccc[nH]2)c1	x	x	x	3.0	4	10	5
COc1ccccc1NS(=O)(=O)c1cc(NC(=O)C(C)C)ccc1N1CCCCC1	6	-10	3224	-5.1	5	7	2
CCOC(=O)c1ccc(NC(=O)C2CC2)cc1	0	-18	11198	1.0	-3	14	22
CC(C)CN1CCC(=O)NC1=S	x	-3	3624	3.0	0	5	8
CCOc1cc(/C=N/O)ccc1OCc1ccccc1F	-6	-24	2611	x	x	x	x
Cn1c(O)c(N=Nc2ccc(F)cc2)c2ccccc21	-5	-21	3641	-2.1	13	8	6
CC(C)(CNC(=O)c1ccc(S(=O)(=O)Nc2ccc(Cl)cc2)cc1)N1CCOCC1	x	-9	6765	4.2	2	3	3
S=c1[nH]nc(COc2ccc(Cl)cc2)n1Cc1ccccc1	-10	-15	2752	1.2	-8	-8	-11
O=C(O)CCN(Cc1ccccc1)S(=O)(=O)c1c(Cl)cccc1Cl	-18	-37	3316	6.7	12	14	0
Cc1ccc(S(=O)(=O)NCCc2nnc3ccc(SCC(=O)Nc4nc(C)cs4)nn23)cc1	-7	-22	2148	-4.6	-1	-13	6
CC(C)(C)NC(=S)N/N=C/c1cccnc1	-1	-7	6023	x	x	x	x
Cc1ccc(N(CCC#N)C(=O)CSc2nc3ccccc3c(=O)[nH]2)cc1	x	-24	3424	2.3	-3	20	11
COC(=O)[C@@]12CCCN1[C@H](c1ccc(-c3ccc(F)cc3)c(OC)c1)[C@H]1C(=O)N(C)C(=O)[C@H]12	3	-21	2950	x	x	x	x
Cc1csc2nc(CNC(=O)c3cccc(C(F)(F)F)c3)cn12	-9	-23	3001	4.6	4	4	4
O=C(CNC1CCCC1)Nc1cc(Cl)ccc1[N+](=O)[O-]	6	-2	3657	3.2	10	12	21
COc1ccc(CCNC(=O)c2nnn(CC(=O)Nc3cccc(F)c3)c2N)cc1OC	6	-40	2750	1.7	7	-2	17
Cc1cccc(C)c1NC(=O)CNC(=O)c1ccc2ccccc2n1	x	16	4033	0.7	-1	-2	9
CC(C)N(C(=O)Cn1cc(SCC(=O)N2CCCC2)c2ccccc21)C(C)C	2	-20	4200	11	5	9	20
COc1ccc(CCN=C(N)NS(=O)(=O)c2ccc(OC)c(OC)c2)cc1OC	-4	-11	6144	4.6	0	-2	-8
CC(=O)Nc1ccc(S(=O)(=O)Oc2cccc(/C=N/N=C3/NC(=O)C(CC(=O)O)S3)c2)cc1 (configuration not stated)	3	-16	3569	x	x	x	x
CCN(c1ccccc1)c1cc(C)nc2ncnn12	3	1	5312	1.9	-3	x	x
CC(C)c1ccc(NC(=O)Cn2c(=O)oc3cccnc32)cc1	-11	-47	4056	-2.0	18	1	0
c1cn(CCCNc2ncnc3sc4c(c23)CCC4)cn1	-5	-7	3184	2.8	-2	7	8
O=c1cccc2n1C[C@@H]1C[C@@H]2CN(CC(O)c2ccc([N+](=O)[O-])cc2)C1 (some centres not stated)	3	-12	4062	0.8	3	-2	-2
CCOc1ccc(C2CC(=O)NC(SCC(=O)OC)=C2C#N)cc1 (configuration not stated)	-5	-21	5568	0.3	9	5	8
CCOc1ccc(OCCOCCOc2c(Cl)cccc2Cl)cc1	3	0	2777	3.0	55	x	x
CC(C)(C)c1ccc(-c2nc3cc(N)ccc3o2)cc1	22	8	3634	-3.6	23	10	8
COc1cc(/C=C2\SC(N3CCCCC3)=NC2=O)cc(OC)c1OC	4	-10	3923	2.6	7	8	4
COc1ccc(C(=O)COC(=O)c2ccc(Cl)nc2)c(OC)c1	-7	-16	u	5.1	-4	6	3
O=S(=O)(c1ccccc1)N1CCN=C1SCc1ccc(Cl)cc1	-3	-16	2237	-3.1	10	6	7
CCC(=O)N(Cc1cc2cc(OC)ccc2[nH]c1=O)c1ccccc1C	-1	-29	3968	9.2	6	18	4
Cc1cc(C(=O)OCC(=O)Nc2ccc(F)cc2)c(C)n1C1CC1	x	-9	6380	10	-2	3	1
CCCCC1=CC2=CC(=O)C(C)(OC(=O)CCc3ccccc3)C(=O)C2=CO1 (configuration not stated)	-6	3	3993	x	x	x	x
Cn1c(N)c(C(=O)COC(=O)C2(c3ccc(Cl)cc3)CCCC2)c(=O)n(C)c1=O	0	-8	3162	5.5	13	x	x
O=[N+]([O-])c1cccc(-c2ccc3nnc(SCc4ccccn4)n3n2)c1	-3	-4	6382	2.4	4	9	14
N#C/C(=C\C=C\c1ccccc1[N+](=O)[O-])c1nc(-c2ccc3c(c2)OCO3)cs1	6	-17	4871	5.6	-11	10	2
COc1ccc(Cc2nnc(SCC(=O)c3ccccc3)o2)cc1	10	-17	2788	-9.8	2	7	6
COc1ccc(C(=O)OCCNC(=O)c2c(Cl)nc3ccccn23)cc1	-5	-10	2948	-2.8	5	x	x
Cc1ccc(S(=O)(=O)NC(CC(C)C)C(=O)Oc2ccc3c4c(c(=O)oc3c2)CCC4)cc1 (configuration not stated)	-1	-31	4514	16	-7	9	3
C=C(C)Cc1c(C)nc(-c2ccccc2)[nH]c1=O	7	-22	8985	-3.2	-4	0	3
CC(Oc1ccccc1F)c1nnc(SCC(=O)c2c(N)n(C3CC3)c(=O)[nH]c2=O)o1 (configuration not stated)	x	-30	5129	1.0	7	11	5
O=S(=O)(c1ccc(=S)[nH]c1)N1CCCCC1	x	-20	6249	6.4	3	7	0
CCc1ccc2c(c1)C1(SC(NC(C)=O)=NN1C(C)=O)C(=O)N2C(C)C (configuration not stated)	-6	-18	13404	3.9	6	3	9
O=C(NN1CCOCC1)C12CC3CC(CC(C3)C1)C2	-11	-17	2068	4.0	1	7	11
COc1ccc2cc(C(N)=O)/c(=N\NC(=O)c3ccccc3)oc2c1	1	53*	2864	x	x	x	x
Cc1ccsc1C=NNC(=O)c1n[nH]c2c1CCC2	x	x	x	20	14	9	5
O=C(Nc1nnc(Cc2ccc(Cl)cc2)s1)c1cccnc1	2	-14	2554	5.1	1	9	8
COc1ccccc1-c1cc(C(=O)NN=Cc2ccc(C)s2)c2ccccc2n1	x	x	x	-8.4	-6	3	9
O=C(c1ccc(S(=O)(=O)N2CCCCCC2)cc1)N1CCN(c2ccccn2)CC1	6	-19	5266	4.0	1	7	8
CCc1cc(=O)oc2c(C)c(OC(C)C(=O)NCCCn3ccnc3)ccc12 (configuration not stated)	2	-8	4970	0.6	1	7	0
CN1C(=O)C2(Oc3ccccc3C3CC(c4ccccc4)=NN32)c2ccccc21 (configuration not stated)	1	0	2279	2.2	-8	x	x
CCCCOc1ccc(CSc2nnc(C)n2N)cc1[N+](=O)[O-]	3	-5	2702	-2.0	-6	-1	0
CC1CCCCC1NC(=O)CN1C(=O)NC(C)(c2cc(F)ccc2F)C1=O (configuration not stated)	x	-6	8588	0.3	0	7	13

6 structures from above, arranged by length of the SMILES, falling:
SMILES	BJeLR viability	PrP UTR inh	Autofluor counter	Sa RN4220 lethal	Sa ugtP lethal	Mtb hypoxia rep	Mtb hypoxia rep growth
N#C/C(=C\C=C\c1ccccc1[N+](=O)[O-])c1nc(-c2ccc3c(c2)OCO3)cs1	6	-17	4871	5.6	-11	10	2
O=C(c1ccc(S(=O)(=O)N2CCCCCC2)cc1)N1CCN(c2ccccn2)CC1	6	-19	5266	4.0	1	7	8
CCc1ccc2c(c1)C1(SC(NC(C)=O)=NN1C(C)=O)C(=O)N2C(C)C (configuration not stated)	-6	-18	13404	3.9	6	3	9
CN1C(=O)C2(Oc3ccccc3C3CC(c4ccccc4)=NN32)c2ccccc21 (configuration not stated)	1	0	2279	2.2	-8	x	x
CC1CCCCC1NC(=O)CN1C(=O)NC(C)(c2cc(F)ccc2F)C1=O (configuration not stated)	x	-6	8588	0.3	0	7	13
C=C(C)Cc1c(C)nc(-c2ccccc2)[nH]c1=O	7	-22	8985	-3.2	-4	0	3

Later entries.
SMILES	BJeLR viability	PrP UTR inh	Autofluor counter	Sa RN4220 lethal	Sa ugtP lethal	Mtb hypoxia rep	Mtb hypoxia rep growth
COc1ccc(OC)c(Nc2nc3nonc3nc2N2CCCC(C)C2)c1 (configuration not stated)	-4	2	2693	5.0	0	13	5
O=C1/C(=C/c2ccco2)SC(=S)N1CCC(=O)N1CCCCC1CCO (configuration not stated)	-13	-15	5831	-2.2	-13	-1	12
Cc1nc(NNC(=O)c2ccc([N+](=O)[O-])cc2)cc(-c2ccccc2)n1	-4	-21	10799	14	1	6	2
CCN(CC(=O)Nc1ccc(NC(C)=O)cc1)C(=O)c1ccc2c(c1)S(=O)(=O)N=C1CCCCCN12	6	3	u	2.1	-1	-8	12
COc1ccc(NC(=O)C2CC(=O)n3ncnc3N2)cc1 (configuration not stated)	21	-45	11136	4.1	15	7	1
c1ccc(-c2nc3c4ccccc4ccn3c2CN2CCCCC2)cc1	8	-12	3406	4.8	4	3	1
CCOC(=O)c1[nH]c2ccc(OC)cc2c1NS(=O)(=O)c1ccc(Cl)s1	0	-27	2184	1.6	0	14	5
CC(c1ccco1)N(C(=O)COc1ccccc1[N+](=O)[O-])c1ccccn1 (configuration not stated)	-2	0	2185	-0.4	-9	x	x
COCCN1Cc2cccc(C(=O)Nc3cccc(C)c3C)c2C1=O	-7	-8	4095	1.7	0	x	x
COc1ccc(NC(=O)C(C)N2C(=O)c3ccccc3C2=O)cc1S(=O)(=O)N1CCOCC1 (configuration not stated)	-2	2	3897	3.2	-4	2	9
O=C1/C(=C/c2cccc(Br)c2)SC(=S)N1/N=C/c1cc([N+](=O)[O-])ccc1O	3	-29	3256	x	x	x	x
O=C(c1c(F)cccc1F)N(Cc1ccccn1)C1CC1	-9	-5	4744	-3.0	-3	-5	5
Cc1cc(N(C)C)cc(C)[n+]1[O-]	7	-18	3253	-16	-2	9	9
CC(=O)Nc1cc(NC(=O)CCCC(=O)O)ccc1Cl	-2	-5	4701	-1.3	-1	x	x
Cc1nnc(NC(=O)CSc2ccc([N+](=O)[O-])cn2)s1	-1	-27	4391	5.5	-5	11	0
COc1ccc(/C=N\NC(=O)c2ccccc2Br)cc1COc1c(F)c(F)cc(F)c1F	2	-9	4356	x	x	x	x
COc1cccc(CCc2nnc(N)s2)c1	-4	-7	x	2.0	3	7	2
COc1ccc(S(=O)(=O)N2CCOCC2)cc1N=Nc1sc(N)nc1-c1ccccc1	-3	-3	1818	0.4	4	19	-3
Oc1ccc(-c2nc3ccccc3s2)c(O)c1	5	-67	4479	17	27	12	14
CC(NC(=O)c1ccco1)C(=O)OCc1cccc(Cl)c1 (configuration not stated)	3	-6	25194*	1.6	-1	3	6
Cc1ccc(NC2=NC(c3ccc(F)cc3)n3c(nc(C)cc3=O)N2)c(C)c1 (configuration not stated)	4	-17	3712	-2.9	-1	-1	14
CCc1ccc2oc(C(=O)NCC(c3ccc(OC)cc3)N3CCCCC3)c(C)c2c1 (configuration not stated)	7	-4	x	-3.9	0	-6	-1
COC(=O)c1c(NC(=O)CSc2nnnn2-c2ccc3c(c2)OCO3)sc(C)c1C	-1	-14	4237	-2.4	-1	3	6
COc1ccc(OC)c(NC(=O)COC(=O)C=Cc2ccc(Cl)cc2)c1	x	x	x	4.7	-11	10	7
CNC(=O)c1cc(S(=O)(=O)N(C)C)ccc1Cl	x	-7	22686*	4.2	2	13	13
Cc1ccc2c(c1)N1C(=O)c3ccccc3C1C1=C(CC(C)(C)CC1=O)N2 (configuration not stated)	-7	-17	6679	-1.7	-12	2	2

Screening data deposited in PubChem BioAssay by several laboratories.
